Vaccinia inh = blocks a specific stage of Vaccinia orthopoxvirus infection, primary screen, cell-based, single point; Vaccinia-infected cells, mCherry/Venus stage reporter fluorescence; hits give low values; some inactives read as strong as hits; 0.01% of 89,000 active; activity change (mCherry), % (concentration not given with the values);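 active = mCherry past -33% and 40 or more points under the early reporter, replicates agreeing; inconclusive = past -33% without that gap or agreement; tested in A549 cells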;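 also: scaled between vehicle wells and reference inhibitor wells; 23 nL library stock went into each well; one replicate is shown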
Vaccinia inh Venus = further read-out of Vaccinia inh, marked with its call; activity change (Venus), %; measured here: Venus reporter, other viral stage;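 negative = less Venus signal; first of two replicates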
Starred values were filed as active, the others as inactive; u = inconclusive; x = not tested or not shown.

SMILES	Vaccinia inh	Vaccinia inh Venus
CO[C@@H]1CN(C)C(=O)c2ccc(NS(=O)(=O)CC(F)(F)F)cc2OC[C@H](C)N(Cc2nccs2)C[C@H]1C	6.5	14.5
CC(C)NC(=O)N(C)C[C@@H]1Oc2ccc(NC(=O)Cc3cn(C)c4ccccc34)cc2CC(=O)N([C@H](C)CO)C[C@H]1C	14.4	3.1
Cc1ccc(S(=O)(=O)Nc2ccc3c(c2)C(=O)N([C@H](C)CO)C[C@@H](C)[C@@H](CN(C)Cc2ccc(C(=O)Nc4ccccc4N)cc2)O3)cc1	-18.7	-6.0
COc1ccc(NC(=O)Nc2ccc3c(c2)C(=O)N([C@@H](C)CO)C[C@@H](C)[C@@H](CN(C)Cc2ccc(C(F)(F)F)cc2)O3)cc1	u	x
Cc1noc(C)c1S(=O)(=O)N(C)C[C@@H]1Oc2ccc(NS(=O)(=O)c3ccccc3)cc2CC(=O)N([C@H](C)CO)C[C@@H]1C	1.0	13.8
C[C@H]1CN([C@@H](C)CO)C(=O)c2cccc(NC(=O)NC3CCCCC3)c2O[C@@H]1CN(C)CC1CCCCC1	-31.7	-31.9
CNC[C@H]1OCCCC[C@H](C)Oc2ccc(NS(=O)(=O)c3ccc(F)cc3)cc2C(=O)N([C@H](C)CO)C[C@H]1C	16.7	12.2
CO[C@@H]1CN(C)C(=O)c2ccc(NC(C)=O)cc2OC[C@@H](C)N(C(=O)C2CC2)C[C@@H]1C	1.1	4.9
COCC(=O)N1C[C@H]2[C@@H](c3ccccc31)[C@H](CO)N2Cc1ccccc1F	21.1	15.0
COc1ccc(NC(=O)Nc2ccc3c(c2)C(=O)N([C@@H](C)CO)C[C@@H](C)[C@@H](CN(C)C(=O)C2CCCCC2)OCCCC[C@@H](C)O3)cc1	-5.3	-1.4
CCS(=O)(=O)N1CC(=O)N2[C@H](CO)[C@@H](c3ccc(-c4cccc(F)c4)cc3)[C@H]2C1	-20.8	-13.9
O=C(Nc1ccc(C(F)(F)F)cc1)N[C@H]1C=C[C@@H](CC(=O)N2CCCCC2)O[C@H]1CO	-9.9	5.7
C[C@@H]1CN([C@@H](C)CO)C(=O)c2cc(C#CC(C)(C)O)cnc2O[C@H]1CN(C)C(=O)c1ccccc1F	-5.4	-6.1
C[C@@H]1CN([C@@H](C)CO)C(=O)c2cc(C#C[C@@H](C)O)cnc2O[C@@H]1CN(C)C(=O)c1ccccc1	12.3	6.2
C[C@H]1CN([C@@H](C)CO)C(=O)Cc2cc(N(C)C)ccc2O[C@H]1CN(C)C	16.0	17.9
CCCNC(=O)N1C[C@H](C)[C@H](OC)CN(C)C(=O)c2cc(NC(=O)CC)ccc2OC[C@@H]1C	9.8	3.6
COc1ccccc1NC(=O)N1C[C@@H](O)COC[C@H]2O[C@H](CC(=O)NCCc3ccncc3)CC[C@@H]21	-7.4	-2.9
Cc1noc(C)c1NC(=O)N(C)C[C@@H]1Oc2c(NC(=O)C3CCCCC3)cccc2C(=O)N([C@@H](C)CO)C[C@H]1C	6.2	6.1
C[C@H](CO)N1C[C@H](C)[C@H](CN(C)C(=O)Nc2cccc(C(F)(F)F)c2)OCc2cnnn2CCCC1=O	5.5	-1.4
COc1ccccc1-c1cnc2c(c1)C(=O)N([C@H](C)CO)C[C@H](C)[C@@H](CN(C)C(C)=O)O2	17.4	11.6
C[C@@H]1CN([C@@H](C)CO)C(=O)c2cc(NC(=O)CCN3CCOCC3)ccc2O[C@@H]1CN(C)Cc1ccc(C(F)(F)F)cc1	-15.6	-1.0
COCc1cn(CC[C@@H]2CC[C@H](NC(=O)Nc3ccc(OC)cc3)[C@H](CO)O2)nn1	0.2	-5.2
CN(C)C(=O)[C@H]1[C@H](CO)[C@H]2Cn3c(ccc(-c4ccccc4F)c3=O)[C@@H]1N2C(=O)c1ccccc1	11.6	7.6
COc1ccc(NC(=O)Nc2ccc3c(c2)C(=O)N([C@H](C)CO)C[C@H](C)[C@@H](CN(C)C)O3)cc1	15.1	9.2
CO[C@@H]1CN(C)C(=O)c2cc(NC(=O)Cc3ccccc3)ccc2OC[C@H](C)N(C)C[C@@H]1C	3.4	0.8
Cc1noc(C)c1S(=O)(=O)Nc1ccc2c(c1)C(=O)N([C@@H](C)CO)C[C@@H](C)[C@@H](CN(C)C)O2	6.4	-1.5
Cc1noc(C)c1S(=O)(=O)Nc1cccc2c1O[C@H](CN(C)S(=O)(=O)c1cn(C)cn1)[C@H](C)CN([C@H](C)CO)C2=O	9.7	4.5
C[C@H]1CN([C@@H](C)CO)S(=O)(=O)c2ccc(C3=CCCCC3)cc2O[C@@H]1CN(C)C(=O)Cc1ccncc1	u	x
COc1ccc(S(=O)(=O)N(C)C[C@H]2Oc3ccc(NC(=O)Nc4ccccc4)cc3CC(=O)N([C@H](C)CO)C[C@@H]2C)cc1	6.2	8.1
COCC(=O)Nc1ccc2c(c1)C(=O)N(C)[C@H]1CC[C@H](CC(=O)Nc3ccccc3C)O[C@@H]1CO2	12.8	13.2

Single records (already shown).
CO[C@@H]1CN(C)C(=O)c2cc(NC(=O)Cc3ccccc3)ccc2OC[C@H](C)N(C)C[C@@H]1C across the screens: Vaccinia inh: 3.4; Vaccinia inh Venus: 0.8
Cc1noc(C)c1S(=O)(=O)Nc1cccc2c1O[C@H](CN(C)S(=O)(=O)c1cn(C)cn1)[C@H](C)CN([C@H](C)CO)C2=O across the screens: Vaccinia inh: 9.7; Vaccinia inh Venus: 4.5

The list goes on:
SMILES	Vaccinia inh	Vaccinia inh Venus
O=C(C[C@@H]1CC[C@H]2[C@@H](COC[C@@H](O)CN2Cc2cccc(C(F)(F)F)c2)O1)NCc1ccncc1	-11.9	-10.6
C[C@@H]1CN([C@@H](C)CO)C(=O)CCCn2cc(nn2)CO[C@H]1CN(C)C(=O)c1ccc(N2CCN(C)CC2)cc1	0.5	4.1
COc1ccc2c3c(n(C)c2c1)[C@H](CO)N(Cc1ccncc1)CC31CN(C(=O)Cc2ccncc2)C1	16.3	6.8
CC(C)NC(=O)N(C)C[C@@H]1Oc2cc(C#C[C@H](C)O)ccc2S(=O)(=O)N([C@@H](C)CO)C[C@H]1C	21.0	1.9
O=C(C[C@H]1CC[C@H]2[C@@H](COC[C@H](O)CN2Cc2cccc(-c3ccncc3)c2)O1)N1CCCCC1	-11.0	-13.0
CC(=O)N1[C@H](C(=O)NC2Cc3ccccc3C2)[C@@H](CO)[C@@H]2Cn3c(ccc(-c4ccncc4)c3=O)[C@@H]21	23.3	8.5
C[C@@H]1CN([C@H](C)CO)C(=O)Cc2cc(NS(=O)(=O)c3ccccc3)ccc2O[C@@H]1CN(C)C(=O)Nc1ccc(F)cc1	13.7	4.5
C[C@@H]1CN([C@@H](C)CO)C(=O)c2cc(NC(=O)CCCN(C)C)ccc2O[C@@H]1CN(C)S(=O)(=O)c1ccc(Cl)cc1	-11.7	-11.5
C[C@H]1CN([C@@H](C)CO)C(=O)c2cc(C#CC3CC3)cnc2O[C@H]1CN(C)Cc1ccccn1	10.3	3.0
C[C@@H]1CN([C@H](C)CO)C(=O)Cc2cc(NC(=O)Nc3ccc(F)cc3)ccc2O[C@@H]1CN(C)Cc1ccc(Cl)c(Cl)c1	u	x
C[C@H]1CN([C@@H](C)CO)C(=O)c2c(c3ccccc3n2C)-c2ccccc2CO[C@@H]1CN(C)C(=O)CCN(C)C	u	x
CN1CCN(C(=O)C[C@H]2C[C@H]3c4cc(NS(C)(=O)=O)ccc4O[C@H]3[C@@H](CO)O2)CC1	4.2	11.8
C[C@H](CO)N1C[C@H](C)[C@@H](CN(C)S(=O)(=O)c2ccc(F)cc2)Oc2ccc(NS(=O)(=O)c3ccc(F)cc3)cc2CC1=O	-9.0	11.3
COCC(=O)Nc1ccc2c(c1)C(=O)N(C)C[C@@H](OC)[C@H](C)CN(C(=O)c1ccccn1)[C@H](C)CO2	3.3	1.4
CCS(=O)(=O)N1CCCCN2[C@H](C1)[C@@H](c1ccc(C#Cc3ccccc3OC)cc1)[C@@H]2CO	-25.5	-24.2
COc1ccc(CN(C)C[C@@H]2Oc3ccc(NC(=O)Nc4ccc5c(c4)OCO5)cc3CC(=O)N([C@@H](C)CO)C[C@H]2C)cc1	-31.8	-12.1
COCC(=O)Nc1ccc2c(c1)C(=O)N(C)C[C@H](OC)[C@H](C)CN(CC1CCCCC1)[C@@H](C)CO2	0.1	-3.7
C[C@@H](NC(=O)C[C@@H]1C[C@@H]2c3cc(NC(=O)c4ccc5c(c4)OCO5)ccc3O[C@@H]2[C@H](CO)O1)c1ccccc1	11.6	1.3
C[C@@H]1CCCCO[C@@H](CN(C)C(=O)C2CCCCC2)[C@H](C)CN([C@@H](C)CO)C(=O)c2cc(NC(=O)c3ccccc3)ccc2O1	u	x
COc1ccc(S(=O)(=O)N(C)C[C@H]2Oc3c(NS(=O)(=O)c4ccc(C)cc4)cccc3C(=O)N([C@H](C)CO)C[C@H]2C)cc1	-15.1	-13.5
N#C[C@@H]1[C@@H](c2ccc(C#Cc3ccccc3F)cc2)[C@H](CO)N1C(=O)c1cccnc1	-16.7	-7.4
C[C@@H]1CN([C@H](C)CO)C(=O)c2cc(C#CCN(C)C)cnc2O[C@@H]1CN(C)S(=O)(=O)c1cn(C)cn1	20.8	7.5
CCS(=O)(=O)Nc1ccc2c(c1)C(=O)N(C)[C@H]1CC[C@@H](CC(=O)OC)O[C@@H]1CO2	0.5	-7.1
O=C(C[C@H]1CC[C@@H]2[C@H](COC[C@H](O)CN2S(=O)(=O)c2cccc(F)c2)O1)Nc1ccccc1	11.6	3.7
O=C(C[C@H]1CC[C@H](NC(=O)C2CCOCC2)[C@H](CO)O1)NCc1ccncc1	-4.5	3.4
CS(=O)(=O)Nc1ccc2c(c1)[C@@H]1C[C@H](CC(=O)O)O[C@H](CO)[C@@H]1O2	28.6	19.4
N#C[C@@H]1[C@@H](c2ccc(C#Cc3cccnc3)cc2)[C@@H](CO)N1C(=O)NC1CCCCC1	-16.3	-15.8
C[C@H](CO)N1C[C@H](C)[C@@H](CN(C)C(=O)Cc2cccnc2)Oc2cc(C#Cc3ccccc3F)ccc2S1(=O)=O	-9.1	-9.4
C[C@@H](O)C#Cc1cnc2c(c1)C(=O)N([C@@H](C)CO)C[C@H](C)[C@H](CN(C)Cc1ccccn1)O2	28.4	4.5
Cc1ccc(S(=O)(=O)N(C)C[C@@H]2Oc3ccc(NC(=O)Cc4cn(C)c5ccccc45)cc3C(=O)N([C@H](C)CO)C[C@H]2C)cc1	-23.7	-10.2
C[C@H]1CN([C@@H](C)CO)C(=O)Cc2cc(NC(=O)Nc3ccc(C(F)(F)F)cc3)ccc2O[C@H]1CN(C)Cc1ccccc1	u	x
COc1cccc(S(=O)(=O)N[C@H]2CC[C@H](CC(=O)NC3CCC3)O[C@@H]2CO)c1	2.0	4.3
COc1cccc(S(=O)(=O)N2CCCCN3[C@@H](CO)[C@H](c4ccc(-c5cncnc5)cc4)[C@@H]3C2)c1	40.6	7.4
N#C[C@@H]1N[C@@H](CO)[C@@H]1c1ccccc1	17.6	12.2
CCC(=O)Nc1ccc2c(c1)OC[C@H](C)N(C(=O)Cc1cccnc1)C[C@@H](C)[C@H](OC)CN(C)C2=O	9.9	9.3
COCC#Cc1ccc([C@@H]2[C@H](CO)N3CCCCN(Cc4cncnc4)C[C@@H]23)cc1	16.3	2.3
C[C@@H]1CN([C@@H](C)CO)C(=O)Cc2cc(NS(=O)(=O)c3ccccc3)ccc2O[C@@H]1CN(C)C(=O)Nc1cccc2ccccc12	23.6	15.8
CCCNC(=O)N1CC2(CCN(Cc3cccc(F)c3)CC2)c2c([nH]c3cc(OC)ccc23)[C@@H]1CO	-31.9	-32.8
COc1ccc(S(=O)(=O)N(C)C[C@H]2Oc3c(NS(C)(=O)=O)cccc3C(=O)N([C@H](C)CO)C[C@@H]2C)cc1	-10.5	5.6
CO[C@H]1CN(C)C(=O)c2ccc(NS(C)(=O)=O)cc2OC[C@H](C)N(C(=O)C2CCCC2)C[C@@H]1C	3.1	-1.2

5 compounds drawn at random from the list so far, as already listed:
SMILES	Vaccinia inh	Vaccinia inh Venus
C[C@H]1CN([C@@H](C)CO)C(=O)Cc2cc(NC(=O)Nc3ccc(C(F)(F)F)cc3)ccc2O[C@H]1CN(C)Cc1ccccc1	u	x
CCCNC(=O)N1CC2(CCN(Cc3cccc(F)c3)CC2)c2c([nH]c3cc(OC)ccc23)[C@@H]1CO	-31.9	-32.8
N#C[C@@H]1N[C@@H](CO)[C@@H]1c1ccccc1	17.6	12.2
COc1ccc(S(=O)(=O)N(C)C[C@H]2Oc3c(NS(C)(=O)=O)cccc3C(=O)N([C@H](C)CO)C[C@@H]2C)cc1	-10.5	5.6
CCC(=O)Nc1ccc2c(c1)OC[C@H](C)N(C(=O)Cc1cccnc1)C[C@@H](C)[C@H](OC)CN(C)C2=O	9.9	9.3

Later entries
SMILES	Vaccinia inh	Vaccinia inh Venus
C[C@@H](O)C#Cc1ccc([C@H]2[C@H](CO)N3CCCCN(CC4CCOCC4)C[C@@H]23)cc1	10.9	7.0
CC(=O)N(C)C[C@H]1Oc2ncc(-c3ccc(C)cc3)cc2C(=O)N([C@@H](C)CO)C[C@H]1C	-13.0	-11.4
O=C(NC[C@H]1[C@@H](c2ccccc2)[C@@H](CO)N1CC1CCCC1)c1ccccc1	-7.0	5.5
CCC(=O)N1C[C@@H](C)[C@@H](OC)CN(C)C(=O)c2cc(NS(=O)(=O)CC)ccc2OC[C@@H]1C	10.1	13.4
O=C(Nc1ccc(Cl)cc1)N1C[C@@H]2[C@H](c3ccccc31)[C@H](CO)N2CC1CCCC1	-7.2	-4.0
O=C(N[C@@H]1CC[C@H](CCNC(=O)C2CCOCC2)O[C@H]1CO)c1ccccn1	1.6	-1.5

Bioassay records as filed in PubChem BioAssay.

Not all compounds are listed; count on the stated rates, not on these rows.
